Assay outcomes deposited in PubChem by National Center for Advancing Translational Sciences (NCATS).
GLA inh pH 4.5 – blocks human alpha-galactosidase A at pH 4.5 | purified enzyme, 4-MU-alpha-Gal fluorescence, pH 4.5 | P06280 | activity change, negative = inhibition, % at 105 µM | 230,000 tested, under 10 active | AID 1467; inconclusive = small, poorly fitted or top-dose-only inhibition, or a rising curve; inactive = flat fitted curve, though single readings scatter; no compound was filed as active;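 further: 0% = full activity with enzyme and -100% = basal without enzyme; dose as in the result columns while the protocol names 77 µM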
Target sequence (P06280 whole entry, looked up): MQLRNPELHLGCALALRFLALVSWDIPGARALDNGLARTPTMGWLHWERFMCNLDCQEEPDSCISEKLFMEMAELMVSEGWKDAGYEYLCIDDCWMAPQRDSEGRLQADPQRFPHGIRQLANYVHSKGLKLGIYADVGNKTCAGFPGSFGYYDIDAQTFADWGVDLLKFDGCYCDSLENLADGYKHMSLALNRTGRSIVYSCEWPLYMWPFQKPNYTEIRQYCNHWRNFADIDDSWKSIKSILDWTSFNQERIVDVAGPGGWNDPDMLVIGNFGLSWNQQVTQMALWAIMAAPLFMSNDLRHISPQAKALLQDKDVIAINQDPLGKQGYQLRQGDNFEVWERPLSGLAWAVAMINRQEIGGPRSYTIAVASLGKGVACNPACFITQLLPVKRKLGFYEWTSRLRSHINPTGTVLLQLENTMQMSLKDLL
Rango complex inh – Rango-importin beta binding inhibition; Q14974; Rango CFP/YFP FRET sensor + importin beta, 45 min; Potency, µM (titrated, usually from 92.2 µM), for the others: at the top dose inhibition of complex formation; 340,000 compounds, 0.031% hits; active = rising FRET ratio curve, often small or poorly fitted; inconclusive = mostly compound fluorescence or quenching in the first reads; inactive = flat curves in all reads;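 further: potency means the concentration at half of the fitted maximal effect; 0% = DMSO wells and 100% = buffer wells lacking importin beta; nearly all actives have a fitted effect of over 15% in size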
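Inhibition scored from the CFP 486 nm/YFP 530 nm FRET ratio 45 min after adding 0.125 microM importin beta to 50 nM Rango biosensor preincubated 5 min with compound (room temperature, PBS with DTT, Tween-20, BSA). No-importin wells as positive control.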
miR-21 reporter – raises the signal of a miR-21 reporter. HeLa miR-21 FLuc reporter, luciferase, 48 h. 340,000 tested, under 10 active. Potency, µM (series often up to 38.3 µM), without a hit: at the highest dose reporter change, positive = more light; active = well fitted rising curve with a large enough effect; inconclusive = small, poorly fitted or top-dose-only effect; inactive = no such curve, though single readings can be large or run the other way;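 further: % of control where 0% means no effect; miR-21 action dims this reporter so a rising signal means less miR-21 action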
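HeLa cells endogenously expressing miR-21, stably carrying CMV-driven firefly luciferase with a downstream miR-21 binding site, 2000 cells/well. Titrations up to approximately 40 uM, 48 hours; luciferase luminescence read.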
Rango release inh – inhibition of RanGTP-driven Rango-importin beta dissociation; Potency, µM (titrated, usually from 46.1 µM), inactives show at the top dose activity change, negative = inhibition; 340,000 compounds, 0.071% hits; Biochemical FRET Rango-importin beta, RanGTP-induced dissociation; active means falling FRET ratio curve, often poorly fitted, with flat reads before Ran was added; inconclusive means other falling curves, or compound fluorescence or quenching; inactive means flat or rising ratio curve;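 further: potency means the concentration at half of the fitted maximal effect; % of control where 0% means no effect; nearly all actives have a fitted effect of over 45% in size; -100% = wells without RanGTP and RCC1; the record marks most hits as doubtful in a second field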
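Compounds sat 5 min at room temperature with 0.1 uM Rango biosensor plus 0.25 uM importin beta, then FRET pre-read. RanGTP-RCC1 (0.6 uM Ran, 2mM GTP, 0.2 uM RCC1) added for 45 min, and the CFP/YFP post-read measured blocked complex dissociation.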
* marks the source's active call; other numbers are inactive results; ? = inconclusive; · = no result given.

SMILES	GLA inh pH 4.5	Rango complex inh	miR-21 reporter	Rango release inh
CC(C)[C@H](NC(=O)[C@@H]1CSC2c3ccccc3C(=O)N21)C(=O)NCc1ccco1 (some centres undefined)	·	2.2%	2%	-20%
CCN(CC)c1nc(-c2nn[nH]n2)nc(N(CC)CC)n1	-6	-1.6%	-14%	-5%
CCSc1ncnc2sc(C)c(C)c12	8	1.7%	-2%	-9%
CC(C)C12CN3CCN(CC(C3)/C1=N\NC(=O)Nc1ccccc1)C2	-6	-3.4%	-6%	-12%
CCNS(=O)(=O)c1ccc(CCC(=O)Nc2ccccc2C(=O)OC)cc1	10	-1.8%	0%	-1%
CC(=O)c1ccc(NC(=O)C(NC(=O)c2ccccc2)=C(C)C)cc1	2	-0.1%	-4%	-9%
O=C(c1nc2ccccn2c1CNCCOc1cccnc1)N1CCOCC1	-1	1.6%	1%	1%
CCOc1ccccc1-n1c(SCC(=O)N2CCCc3ccccc32)nnc1-c1cccnc1	3	-0.8%	0%	10%
Cc1ccc(/C=C2\SC(=O)N(CCNC(=O)C3CSC4(C)CCC(=O)N34)C2=O)cc1 (centres undefined)	·	5.0%	·	-17%
CCOC(=O)Nc1ccc2c(c1)nc(CN1CCN(C(C)=O)CC1)n2C	-2	5.6%	-11%	-5%
N#Cc1cncc(C#Cc2ccccc2)c1	·	-0.8%	-14%	-18%
CCCOc1ccc(C(=O)N2CCCc3ccccc32)cc1	-8	-0.5%	-17%	-1%
CCOC(=O)C/C(C)=N/NC(=O)Nc1ccccc1	6	-0.2%	-47%	10%
Cc1ccc(-c2nn(CCC(=O)Nc3cccnc3)c(=O)c3ccccc23)cc1	-6	-1.6%	-2%	-18%
COc1cccc(NC(=O)C(C)SCc2ccccc2)c1 (centres undefined)	5	3.2%	-33%	-23%
CC(C)NC(=O)N(C)C[C@H]1Oc2c(NC(=O)Nc3ccc(C(F)(F)F)cc3)cccc2C(=O)N([C@H](C)CO)C[C@@H]1C	·	0.4%	·	-8%
Cc1c(OCC(=O)N2CCC(C(=O)O)CC2)ccc2c3c(c(=O)oc12)CCCC3	·	1.6%	-2%	2%
CC(CCc1ccccc1)NC(=O)[C@@H]1Cc2ccccc2CN1 (some centres undefined)	·	-3.2%	-5%	-1%
CC1(c2ccc([N+](=O)[O-])cc2)NC(=O)N(CC(=O)Nc2cccnc2Cl)C1=O (centres undefined)	·	-0.9%	·	4%
Cc1cc(OC(C)C(=O)NNC(=O)Nc2ccc(F)cc2F)cc(C)c1Cl (centres undefined)	·	-0.6%	1%	-18%
COC(=O)C1CN(C(=O)COc2ccc(Cl)cc2Cl)c2ccccc2O1 (centres undefined)	·	1.6%	0%	11%
CC(=O)Nc1ccccc1N(C)S(=O)(=O)c1ccc(C)cc1	2	0.5%	27%	-2%
Cc1ccc(Cl)cc1NC(=O)CCN1C(=O)C2C3CCC(C3)C2C1=O (centres undefined)	4	0.1%	5%	22%
COc1ccc(OC)c(/C=N/NC(=O)C(=O)N2CCCC2)c1	6	-2.1%	1%	-5%

Three entries from above, with values ahead of the structure.
| GLA inh pH 4.5 | Rango complex inh | miR-21 reporter | Rango release inh | smiles |
| --- | --- | --- | --- | --- |
| · | -3.2% | -5% | -1% | CC(CCc1ccccc1)NC(=O)[C@@H]1Cc2ccccc2CN1 (some centres undefined) |
| · | -0.9% | · | 4% | CC1(c2ccc([N+](=O)[O-])cc2)NC(=O)N(CC(=O)Nc2cccnc2Cl)C1=O (centres undefined) |
| · | -0.6% | 1% | -18% | Cc1cc(OC(C)C(=O)NNC(=O)Nc2ccc(F)cc2F)cc(C)c1Cl (centres undefined) |

(more compounds)
SMILES	GLA inh pH 4.5	Rango complex inh	miR-21 reporter	Rango release inh
O=C(COC(=O)/C=C/c1ccccc1[N+](=O)[O-])NC1CCS(=O)(=O)C1 (centres undefined)	6	?	0%	6%
CCn1c(SC)nc2cc(S(=O)(=O)N3CCCCC3)ccc21	·	0.0%	·	5%
Cc1cccc(NC(=O)CNC(=O)Cc2ccc3c(c2)OCCO3)c1C	·	?	·	-18%
CN(C(=O)C1CCN(S(=O)(=O)c2cccc3nonc23)CC1)C1CCCCC1	·	4.0%	1%	-8%
O=C(O)c1cc(-c2ccccc2)c(N2CCOCC2)s1	6	0.8%	0%	-10%
OC1(C#Cc2c(-c3ccsc3)oc3ccc(N4CCOCC4)cc23)CCCCC1	·	8.3%	·	-6%
C[C@H](CO)N1C[C@H](C)[C@@H](CN(C)C(=O)Nc2ccc3c(c2)OCO3)Oc2c(NC(=O)Nc3ccc4c(c3)OCO4)cccc2C1=O	·	1.8%	·	3%
CSc1cccc(NC(=O)CN2C(=O)COc3ccc(S(=O)(=O)N4CCOCC4)cc32)c1	·	6.4%	2%	-8%
CCN(C(=O)CSc1nnc(NCCOC)s1)c1c(N)n(Cc2ccccc2)c(=O)[nH]c1=O	·	-1.1%	·	25%
O=[N+]([O-])c1ccccc1CNCCO	·	-1.2%	·	1%
CC(=O)Nc1c2c(nn1-c1ccccc1)CSC2	·	-0.3%	-4%	-18%
O=C(CNc1ccc(Br)cc1)NNC1=NCCC1	-4	1.6%	-4%	-7%
Cc1cccc(C)c1N1C(=O)[C@@H]2C(c3ccccc3Cl)=NO[C@@H]2C1=O	-11	-0.9%	3%	6%
Cc1cccc(/N=C/c2c(O)n(Cc3ccc4c(c3)OCO4)c(=O)c3ccccc23)n1	-2	-2.1%	-2%	-15%
COc1cccc(C(=O)C2CCCN(Cc3cccn3-c3cccnc3)C2)c1 (centres undefined)	-1	0.3%	0%	2%
Cc1nc(C(F)(F)F)ccc1C(=O)Nc1ccc(C(F)(F)F)cn1	3	-0.1%	6%	-10%
Cc1ccc(SCCCn2cnc3ccccc3c2=O)cc1	2	1.7%	-13%	7%
COCCNC(=O)c1onc(CSc2cccc(OC)c2)c1C(=O)O	4	0.2%	1%	-3%
O=S(=O)(c1ccccc1S(=O)(=O)N1CCCCC1)N1CCCCC1	-3	-0.5%	-3%	2%
CCCn1c2c(c(O)c(C(=O)Nc3ccccc3)c1=O)CCCC2	-5	0.1%	-2%	25%
O=C(N/N=C/c1ccncc1)/C(=C/c1ccccc1)NC(=O)c1ccccc1	-3	9.4%	-2%	-1%
Cc1ccc(Cl)c(OCC(=O)Nc2ccccc2C(=O)NC2CC2)c1	·	-5.2%	-5%	-1%
O=C(NC1(C(F)(F)F)NC(=O)N(c2ccc(F)cc2)C1=O)c1cccs1 (centres undefined)	4	0.9%	2%	0%
CCN(C(=O)CSc1nc2ccccc2c(=O)n1C(C)COC)C1CCS(=O)(=O)C1 (centres undefined)	-10	1.8%	-1%	10%
O=C(COC(=O)CC(c1ccccc1)c1ccccc1)NCc1ccccc1	-18	0.6%	-1%	-1%
Cc1cc(Cl)ccc1NC(=O)NC1CCN(S(=O)(=O)c2ccc(F)cc2)CC1	-6	1.6%	12%	-7%
COc1ccc(-c2coc3cc4oc(=O)cc(C)c4cc23)cc1F	19	-0.4%	0%	9%
CC(C)CN1CCN(Cc2ccc3ncccc3c2)CC1CCO (centres undefined)	·	-0.9%	-6%	-5%
C=CCc1cc(Cl)ccc1OCCCNCCO	7	3.0%	-16%	-1%
Cc1ccc2[nH]c(C)c(CC(=O)NCc3ccccc3)c2c1	·	-1.9%	4%	2%
O=C(NCc1cccnc1)c1ccc(NS(=O)(=O)c2ccccc2)cc1	·	-3.3%	-6%	-10%
O=C(Nc1ccnc(-c2ccncc2)n1)C1CC1	7	?	1%	-7%
COc1ccc2[nH]cc(S(=O)(=O)c3ccc(C(C)C)cc3)c(=O)c2c1	-3	-1.6%	-1%	11%
O=C(CCl)N=c1sccn1Cc1ccc(Cl)cc1Cl	-6	-0.3%	?	0%
CCC(=O)Nc1ccc(C(=O)CSc2nnc(-c3ccc(NS(C)(=O)=O)cc3)n2C)cc1OC	-6	2.2%	-1%	-17%
COc1cccc(CNc2cc(CSc3ccc(Cl)cc3)nc(C)n2)c1	-4	2.5%	-1%	-14%

A portion taken from the entries so far:
SMILES	GLA inh pH 4.5	Rango complex inh	miR-21 reporter	Rango release inh
Cc1ccc2[nH]c(C)c(CC(=O)NCc3ccccc3)c2c1	·	-1.9%	4%	2%
O=C(NCc1cccnc1)c1ccc(NS(=O)(=O)c2ccccc2)cc1	·	-3.3%	-6%	-10%

Further results follow.
SMILES	GLA inh pH 4.5	Rango complex inh	miR-21 reporter	Rango release inh
COc1ccc(/C=C2\C(=O)NC(=S)N2C(=O)c2ccc(C)cc2)cc1	-16	?	-29%	?
CN(CC(=O)Nc1ccc(F)cc1)C(=O)Cn1cnc2ccc(Cl)cc2c1=O	·	-0.6%	·	-4%
Cc1cnc(C)c(N2CCC(C(=O)NC(C)c3cccs3)CC2)n1 (centres undefined)	-3	1.8%	-4%	-10%
C=CC[C@H](CC(=O)N(CCO)Cc1ccccc1)C(=O)N[C@H](COC(=O)[C@@H](CC=C)Cc1ccc(F)cc1)Cc1ccccc1	·	0.3%	·	-5%
Cc1ccc(Cc2cnc(NC(=O)c3ccco3)s2)cc1	-2	3.3%	-2%	1%
FC(F)(F)C12CC(c3ccccc3)=NCCN1CCN2 (centres undefined)	10	?	-1%	-30%
COCCn1c(=NC(=O)CCS(=O)(=O)c2ccccc2)sc2c(OC)ccc(OC)c21	·	?	0%	-19%
COCCNC(=O)CSCc1c(F)cccc1Cl	-7	-2.2%	-7%	4%
CS(=O)(=O)Nc1ccc(C(=O)NCCSCc2c(F)cccc2Cl)cc1	1	0.1%	-5%	1%
Cc1nn(Cc2ccccc2)c(C)c1NC(=O)c1cccs1	4	1.3%	-5%	8%
Cc1cc(C(=O)COc2cccc([N+](=O)[O-])c2)c(C)n1C1CC1	·	1.6%	·	1%
Cc1nn(-c2ccccc2)c(=S)n1-c1ccccc1	-3	-2.1%	1%	0%
COC(=O)C1C(O)=C(C=Nc2cccc3ccccc23)C(=O)CC1(C)C (centres undefined)	-3	?	-1%	?
Nc1nc(N)c(-c2cccc(C(F)(F)F)c2)c(Cc2cccc(C(F)(F)F)c2)n1	·	-1.6%	·	-9%
COc1ccc(NC(=O)CN(C)CC(=O)Nc2sc3c(c2C(N)=O)CCC3)cc1	·	-4.2%	·	-15%
N=C(c1cccc([N+](=O)[O-])c1)N1CCCCC1	-4	-1.0%	-1%	-1%
O=C(COC(=O)CNC(=O)C1CCCCC1)Nc1cc(C(F)(F)F)ccc1Cl	·	-0.5%	·	2%
Cc1cc(NCc2ccccc2)nc(N2CCOCC2)n1	7	2.0%	-14%	-12%
COc1cccc(N2CCN(C(=O)C3CCCN(c4ncnc5c4nc4n5CCCCC4)C3)CC2)c1 (centres undefined)	·	1.7%	18%	-11%
COc1ccc(C(=O)NCC(c2ccco2)N2CCOCC2)cc1OC (centres undefined)	·	-1.3%	·	-12%
C[C@H](CO)N1C[C@H](C)[C@@H](CN(C)S(C)(=O)=O)Oc2ccc(NC(=O)C3CCCCC3)cc2C1=O	·	3.3%	·	27%
Fc1ccc(F)c(CN2CCN(c3ncccn3)CC2)c1	-6	-2.7%	-9%	-4%
COc1ccc2[nH]c3c(c2c1)CCN1C(=O)N([C@@H](C)C(=O)NCc2ccccc2)C(=O)[C@]31C	·	0.7%	3%	-12%
CC(=O)c1ccc(N2CCN(CC3CCCCC3)CC2)cc1	·	2.2%	-4%	0%
COc1ccc(S(N)(=O)=O)cc1C(=O)NCC(C)(C)N1CCCCC1	·	-0.6%	1%	3%
O=C(C1CC1)N(CCN(Cc1ccccc1)C(=O)C1CC1)Cc1ccccc1	2	?	-3%	22%
CCO[C@@H]1OC(C(=O)N2CCOCC2)=C[C@H](C2CCCCC2)[C@H]1CCCO	-6	-3.4%	4%	17%
CCn1c(C)c(C2=CCN(S(=O)(=O)c3ccc(C)cc3)CC2)c2ccccc21	-14	?	0%	?
CC(=O)c1ccc(Oc2ncnc3sccc23)c(CN2CCOCC2)c1	-2	2.8%	-8%	-6%
Cc1ccccc1Nc1nc(CSc2nnnn2-c2ccccc2)cs1	2	-0.1%	2%	-7%
COCCNS(=O)(=O)c1ccc2c(c1)oc(=O)c1cc(S(=O)(=O)NCCOC)ccc12	1	·	0%	·
Fc1ccccc1NC(=S)N1CCN(c2ccccn2)CC1	10	-2.8%	-8%	-6%
Nc1ccc(NC(=O)Nc2ccc(N)cc2)cc1	5	-2.0%	-23%	58%
O=C(COC(=O)CNC(=O)c1ccccc1)NC1CCCCC1	·	-1.5%	·	11%

Only part of the results is shown; count on the stated rates, not on these rows.
